# Compound activity as filed in PubChem.
# NPYLR7 agonist = agonists of mosquito NPYLR7 receptor, primary screen, cell-based, Aedes aegypti, calcium fluorescence, mosquito biting behavior. activation, % at 10 µM. hit rate 0.15% among 270,000. Aedes aegypti neuropeptide Y-like receptor 7 (NPYLR7). AID 1259423, 2018. HEK293T NPYLR7/Galpha15, GCaMP6s calcium fluorescence; in the data active = activation above about 40%;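 note: 0% = vehicle and 100% = reference agonist at the receptor; some compounds past the cut are filed as inactive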
# NPYLR7 agonist max-min = second read-out of NPYLR7 agonist, no call of its own (marks repeat the call); activation, %; measured here: Max-Min RFU normalised activation; some inactives read as strong as hits;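 span of the calcium signal over five minutes; 0% = vehicle and 100% = native peptide agonist; compound fluorescence can raise it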
# Numbers without * were called inactive. A portion of the library; the hit share may differ from the screen's.
SMILES,NPYLR7 agonist,NPYLR7 agonist max-min
Cc1cc(C(O)c2ncc(-c3ccc(F)cc3)[nH]2)ccc1F (centres undefined),-1,-2
OCCN1CCN(c2nccn3ccnc23)CC1,-2,-2
COc1ccc(C)cc1NC(N)=S,-6,-13
COc1ccc(-c2ccc(=O)n(Cc3ccncc3)n2)cc1,8,0
O=C(Nc1c(F)c(F)c(F)c(F)c1F)C1CC2CCCN2C12C(=O)Nc1ccccc12 (centres undefined),3,1
Cc1ccc(CCNC(=O)c2cccnc2Nc2cc(Cl)ccc2C)cc1,-2,-3
CC(NC(=O)N(C)Cc1ccccc1-c1ccccc1)c1nncn1C (centres undefined),3,0
CC(C)c1nc(CNC(=O)C2CCC(=O)N(Cc3ccc(Cl)cc3)C2)no1 (centres undefined),8,11
C=CC(=O)N1CCN(c2nc3nccc(-c4cccc(C)c4)n3n2)CC1,3,-1
CN1CCc2[nH]nc(C(=O)N3CC[C@@H](N4CCCCCC4)[C@H](O)C3)c2C1,24,8
Cc1cc(C(=O)N2CCC3(CC2)OCc2cc(-c4ccc(C(=O)N(C)C)cc4)ccc2O3)c(C)o1,-2,-11
CCCCOC1COC(OCCCC)CO1 (centres undefined),10,20
Cc1cccc(-c2nnc(SCC(=O)NC(C)c3ccc(F)cc3)o2)c1 (centres undefined),-7,15
CC(NC(=O)C1CCN(C(=O)c2cccs2)CC1)c1ccccc1F (centres undefined),0,0
CC(=O)NC1CCN(Cc2cccc(C(=O)Nc3cc(C)cc(C)n3)c2)C1 (centres undefined),1,0
CCc1nc2n(n1)C(=O)C(C(c1ccc(Cl)cc1)N1CCC(C(N)=O)CC1)S2 (centres undefined),-4,14
Cc1ccn2c(NC(=O)C3CC=CCC3)c(-c3ccccc3)nc2c1 (centres undefined),-1,9
O=C(C1CC=CCC1C(=O)N1CCc2ccccc2C1)N1CCN(c2ccccn2)CC1 (centres undefined),-4,-12
CC(C)C(=O)N1CCCC1(C)C(=O)N(C)Cc1cccc2ccccc12 (centres undefined),-1,-1
O=S1(=O)CCC(N(CC2CCCO2)S(=O)(=O)C2=Cc3ccccc3CC2)C1 (centres undefined),4,3
Cc1[nH]c2c(F)cccc2c1CC(=O)NCc1noc(-c2ccco2)n1,16,8
CN(CC(C)(C)O)c1nc(C2CC2)nc2sc3c(c12)CCCC3,9,7
CC(=O)Nc1cccc(-c2nc(C(F)(F)F)nc(C)c2C)c1,5,1
O=C(Nc1nnc(C2CC2)s1)C1CCN(S(=O)(=O)c2cccs2)CC1,12,14
Cn1cccc1-c1cc(C(=O)N2CCN(Cc3ccc4c(c3)OCO4)CC2)n(-c2ccc(Cl)c(Cl)c2)n1,-5,-4
O=C(NC1CCS(=O)(=O)c2ccccc21)C1(c2ccc(F)cc2)CCCC1 (centres undefined),-8,387
Cc1ccc(CNc2ccc(C(=O)N(C)Cc3noc(C(C)C)n3)cc2)cc1,1,-1
Cc1c(C)n2c3c(=O)n(C)c(=O)n(C)c3nc2n1Cc1ccc(Br)cc1,3,2
O=C(NCCn1nc(-c2ccc(Cl)cc2)ccc1=O)c1cccc2ccccc12,15,9
Cc1cc(C)c2c(=O)n(C(=O)c3ccc(Cl)cc3)sc2n1,5,10
O=C(Cc1ccc(F)cc1)OCc1cc(-c2cc3ccccc3o2)on1,-1,-2
COCCCNC(=O)CC(c1ccccc1OC)c1cn(C)c2ccccc12 (centres undefined),-1,6
O=C(NCCC1CC2CCC1C2)N1CCOC(c2ccc(F)cc2)C1 (centres undefined),6,3
CC(C(=O)Nc1ccccc1)N1CCN(C(=O)c2cccs2)CC1 (centres undefined),-2,-2
C=CCOC(=O)c1sc2nc(CNC3CCCCC3)[nH]c(=O)c2c1C,34,35
CN(C)S(=O)(=O)NCCn1nc(-c2cccs2)ccc1=O,3,2
Cc1ccccc1-n1ncc2c1CC(C)(C)CC2NC(=O)c1ccc(C#CC(C)(C)O)o1 (centres undefined),7,5
O=C(c1ccc2c(c1)OCCCO2)N1C[C@H](Oc2ccccn2)[C@H]2C[C@@H]1Cc1c2[nH]c2ccccc12,27,23
CCc1nn(C)c(NC(=O)c2ccc(CN3CCNC(=O)C3C)cc2)c1CC (centres undefined),-7,-8
C=CCN(CC(=O)N1CCc2sccc2C1c1ccccc1C)S(=O)(=O)c1c(C)cc(C)cc1C (centres undefined),0,4
O=C(NC1CCN(C(=O)c2ccc[nH]c2=S)CC1)c1ccoc1,-3,-4
Cc1onc(-c2ccccc2)c1C(=O)OCC(=O)NC(=O)c1ccco1,-1,-3
Cc1ccc(Nc2cc(C)nc(N3CCN(C(=O)c4ccco4)CC3)n2)cc1,12,2
O=C(c1cc(Cl)c2c(c1)OCCCO2)N1CCN(S(=O)(=O)c2ccccc2F)CC1,6,2
O=C(Nc1ccc(-c2nc3ccccc3o2)cc1)c1cccc(F)c1,-6,-9
COc1cc(CNc2nn[nH]n2)ccc1OCc1cccc(Cl)c1,-7,-11
COCCNC(=O)c1cc2nc(-c3ccc(C)cc3)cc(C(F)(F)F)n2n1,-6,-12
COC(=O)C1CCN(C(=O)Cc2cc(-c3ccc(OC)c(OC)c3)on2)CC1,1,2
C=CCOc1ccc(Cl)cc1CN1CCC(CN)C1 (centres undefined),8,7
Cc1cc(=O)[nH]c(-n2nc(C)cc2NC(=O)C(C)(C)Oc2ccc(Cl)cc2)n1,8,3
CC(NC(=O)c1cc(F)ccc1Br)c1cccs1 (centres undefined),2,1
CCCCc1nc(Cl)c(CN2CCOC(CN)C2)[nH]1 (centres undefined),23,15
O=C1NCCN(CCc2ccccc2)C1CC(=O)N1CCCCCCCC1 (centres undefined),5,1
CCc1nc(SCC(=O)Nc2ncc(Cl)cc2Cl)n[nH]1,9,1
O=C(Cc1ccccc1O)Nc1ccc(N2CCCC2)nc1,2,1
CCOC(=O)c1cnc(-c2ccccc2)nc1N(C)CCc1ccccn1,-5,-9
CNc1ncc(CN(C)c2nccc(N3CCCC(O)C3)n2)cn1 (centres undefined),-1,-2
COCCCN1CCN(S(=O)(=O)NCc2ccccc2)CC1,4,1
Fc1cc(Cl)ccc1CSc1nc2ncc(Br)cc2[nH]1,7,5
CC(C)c1nc(CNC(=O)N2CCC(N3CCCC3)CC2)cs1,2,5

# New compounds follow:
SMILES,NPYLR7 agonist,NPYLR7 agonist max-min
CC(=O)OCCn1c(C)c(COC(C)=O)c(=O)n(C)c1=O,-5,5
CC(C)Oc1ccccc1NC(=O)c1ccc(CN2CCCNC(=O)C2)cc1,3,1
CN(C)c1ccc(NC(=O)c2ccc(CN3CCCCC3)cc2)cn1,0,1
O=c1ccc(-c2ccco2)nn1CCCNS(=O)(=O)c1ccccc1,1,1
Cc1cc(C)cc(-c2nc3cc(C)ccn3c2NC(=O)COc2ccc(Cl)cc2)c1,-8,-7
COc1ccc(CN(Cc2ccco2)CC(O)COCc2ccccc2)cc1OC (centres undefined),-5,-9
Fc1cccc(Nc2nc3ccccc3n3cnnc23)c1,-6,-7
CC1(C(=O)NC2Cc3ccccc3C2)CCN1C(=O)Cc1ccccc1 (centres undefined),11,12
CCOc1c(C)cnc2c1c(=O)n(CC(=O)NC1CCCC1)c(=O)n2C,-2,-3
O=C(Nc1ccccc1)Nc1ccc(Cl)c(Cl)c1,6,7
CCCC1CCCCC1NC(=O)NOC (centres undefined),0,-3
O=S(=O)(c1cccc(C(F)(F)F)c1)N1CCN(c2nc3nccc(-c4ccc(Cl)c(Cl)c4)n3n2)CC1,2,0
c1coc(CNc2ncnc3c2nc2n3CCCCC2)c1,2,-2
CCC1CCCCN1CC(=O)Nc1ccc(C#N)cc1 (centres undefined),10,6
Cc1ccc(NC(=O)Cn2nc(C(C)C)c3cnn(-c4ccccc4)c3c2=O)c(C)c1,7,2
CCOC(=O)C1(Cc2cccc(OC)c2)CCCN(Cc2ccccn2)C1 (centres undefined),5,0
O=NN1CCC(C(c2ccccc2)c2ccccc2)CC1,-4,-3
Cc1cccc(C)c1OCC(C)n1cc2ncccc2c1O (centres undefined),13,4
Cc1nc(C)c(COc2cccc(C(C)O)c2)s1 (centres undefined),12,5
CCOC(=O)N1CCN(C(=O)CC(c2ccc(C)cc2C)c2c[nH]c3ccccc23)CC1 (centres undefined),-1,1
Cc1nsc(N2CCN(C(=O)c3cc(Cl)c(Cl)[nH]3)CC2)n1,-34,-34
COc1ccc(-c2ccnc(SCc3csc(Cc4ccc(Cl)c(Cl)c4)n3)n2)cc1,5,0
CCc1ccc(-c2cc3c(SCC(=O)Nc4cccc(OC)c4)nccn3n2)cc1,-3,-5
Cc1ccc(-c2nc3ccc(C)cn3c2NC(=O)C(C)C)cc1,-5,2
CCC(=O)C1=NN(c2ccccc2)C(=N)C(C#N)C1 (centres undefined),-2,-2
CCCCN1CC2([N+](=O)[O-])C=CC(=O)C([N+](=O)[O-])(C1)C2 (centres undefined),-2,-5
CCCOC1CCCN(C(=O)c2ccccc2C)C1 (centres undefined),-3,3
COCCCN(CC(=O)N(Cc1cccn1Cc1ccccc1Cl)CC(C)C)C(=O)c1ccc2c(c1)OCO2,-8,-7
CCCn1c(SCc2csc(-c3cccs3)n2)n[nH]c1=O,7,2
C=CCNc1ccc(C(=O)N2CCN(C(=O)c3ccccc3)CC2)cc1,4,2
CCOC(=O)Cc1csc(NC(=O)C(C)Oc2cccc(C)c2)n1 (centres undefined),-7,-7
Cc1cc(NC(=O)COc2ccc(Cl)cc2Cl)n(-c2nc(C)c(C)c(=O)[nH]2)n1,12,1
CC1(C)Cc2nc(NC(=S)Nc3ccccc3)c(C(=O)O)cc2CO1,-18,-22
O=C(c1sccc1S(=O)(=O)N1CCCC1)N1C[C@H]2CC=CC[C@H]2C1,7,3
CCOC(=O)N1CCN(C(=O)c2ccc(C#CC(C)(C)O)cc2)CC1,19,20
CCCc1cc(C(=O)OCC)nn1C1CCN(C(=O)c2cc(OC)c(OC)c(OC)c2)CC1,4,1
Cc1ccc(-c2nc3scc(CCNS(=O)(=O)c4cccs4)n3n2)cc1,-7,-5
COCCNC(=O)C1(C)CCN1C(=O)Cc1cccs1 (centres undefined),1,-2
CCOC(=O)c1sc(N2C(=O)C(O)=C(C(=O)c3ccco3)C2c2ccc(Cl)cc2)nc1C (centres undefined),-3,-3
CCn1c(SCC(=O)Nc2cccc(C)c2C)nnc1-c1cccn(C)c1=O,4,1
O=C1NCCN1CCn1ccnc1-c1ccc(CO)o1,5,0
CN1CCC(N2CCN(CC(F)(F)F)c3ccccc32)C1=O (centres undefined),4,3
Cc1ccc(OCC(=O)OCC(=O)NCCC2=CCCCC2)cc1C,14,6
CN(CC12CC3CC(CC(C3)C1)C2)c1cnn(C)c(=O)c1Cl,5,6
C=CCn1nc(C(=O)N2CCSCC2)c2c1CCC(NCc1cc(-c3ccccc3)on1)C2 (centres undefined),19,5
CN(CCCN1CCOC1=O)Cc1cccc2ccccc12,-5,-6
COC(C(=O)N(C)Cc1ccc(C)o1)c1ccccc1 (centres undefined),3,2
CCOc1ccccc1-n1c(=O)[nH]c2c(C(N)=O)nc(-c3ccc(OC)cc3)nc21,9,4

# 28 of the compounds above, with tabs.
mol	NPYLR7 agonist	NPYLR7 agonist max-min
Cc1nsc(N2CCN(C(=O)c3cc(Cl)c(Cl)[nH]3)CC2)n1	-34	-34
COc1ccc(-c2ccnc(SCc3csc(Cc4ccc(Cl)c(Cl)c4)n3)n2)cc1	5	0
CCc1ccc(-c2cc3c(SCC(=O)Nc4cccc(OC)c4)nccn3n2)cc1	-3	-5
Cc1ccc(-c2nc3ccc(C)cn3c2NC(=O)C(C)C)cc1	-5	2
CCC(=O)C1=NN(c2ccccc2)C(=N)C(C#N)C1 (centres undefined)	-2	-2
CCCCN1CC2([N+](=O)[O-])C=CC(=O)C([N+](=O)[O-])(C1)C2 (centres undefined)	-2	-5
CCCOC1CCCN(C(=O)c2ccccc2C)C1 (centres undefined)	-3	3
COCCCN(CC(=O)N(Cc1cccn1Cc1ccccc1Cl)CC(C)C)C(=O)c1ccc2c(c1)OCO2	-8	-7
CCCn1c(SCc2csc(-c3cccs3)n2)n[nH]c1=O	7	2
C=CCNc1ccc(C(=O)N2CCN(C(=O)c3ccccc3)CC2)cc1	4	2
CCOC(=O)Cc1csc(NC(=O)C(C)Oc2cccc(C)c2)n1 (centres undefined)	-7	-7
Cc1cc(NC(=O)COc2ccc(Cl)cc2Cl)n(-c2nc(C)c(C)c(=O)[nH]2)n1	12	1
CC1(C)Cc2nc(NC(=S)Nc3ccccc3)c(C(=O)O)cc2CO1	-18	-22
O=C(c1sccc1S(=O)(=O)N1CCCC1)N1C[C@H]2CC=CC[C@H]2C1	7	3
CCOC(=O)N1CCN(C(=O)c2ccc(C#CC(C)(C)O)cc2)CC1	19	20
CCCc1cc(C(=O)OCC)nn1C1CCN(C(=O)c2cc(OC)c(OC)c(OC)c2)CC1	4	1
Cc1ccc(-c2nc3scc(CCNS(=O)(=O)c4cccs4)n3n2)cc1	-7	-5
COCCNC(=O)C1(C)CCN1C(=O)Cc1cccs1 (centres undefined)	1	-2
CCOC(=O)c1sc(N2C(=O)C(O)=C(C(=O)c3ccco3)C2c2ccc(Cl)cc2)nc1C (centres undefined)	-3	-3
CCn1c(SCC(=O)Nc2cccc(C)c2C)nnc1-c1cccn(C)c1=O	4	1
O=C1NCCN1CCn1ccnc1-c1ccc(CO)o1	5	0
CN1CCC(N2CCN(CC(F)(F)F)c3ccccc32)C1=O (centres undefined)	4	3
Cc1ccc(OCC(=O)OCC(=O)NCCC2=CCCCC2)cc1C	14	6
CN(CC12CC3CC(CC(C3)C1)C2)c1cnn(C)c(=O)c1Cl	5	6
C=CCn1nc(C(=O)N2CCSCC2)c2c1CCC(NCc1cc(-c3ccccc3)on1)C2 (centres undefined)	19	5
CN(CCCN1CCOC1=O)Cc1cccc2ccccc12	-5	-6
COC(C(=O)N(C)Cc1ccc(C)o1)c1ccccc1 (centres undefined)	3	2
CCOc1ccccc1-n1c(=O)[nH]c2c(C(N)=O)nc(-c3ccc(OC)cc3)nc21	9	4
